# Screens deposited in PubChem BioAssay by several laboratories.
# Mtb H37Rv: M. tuberculosis H37Rv growth inhibitors, H37Rv strain (AID 1626) | M. tuberculosis H37Rv growth inhibition; higher % means a stronger effect | inhibition, % at 10 µM; hits with a dose series show IC50 in µM | 220,000 compounds, 0.95% hits;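 active means confirmed in a dose series; inconclusive means inhibition above 80% but not taken into the dose series; inactive means below 80% or under 30% at every dose of the series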;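 further: bacteria incubated seven days before Alamar blue readout; 0% = bacteria only wells and 100% = bacteria with antibiotic wells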
# RecA splice inh: Mtb RecA intein splicing inhibition; cell-free RecA intein splicing, fluorescence; inhibition, %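 (about 9 µM by stock and volumes)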; 290,000 compounds, 0.75% hits; in the data active means inhibition above about 30%; inconclusive means no clear call, values can overlap the other calls;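 further: 0% = vehicle wells and 100% = reference inhibitor control wells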
# Target sequence (P9WHJ3 whole entry, looked up, canonical isoform): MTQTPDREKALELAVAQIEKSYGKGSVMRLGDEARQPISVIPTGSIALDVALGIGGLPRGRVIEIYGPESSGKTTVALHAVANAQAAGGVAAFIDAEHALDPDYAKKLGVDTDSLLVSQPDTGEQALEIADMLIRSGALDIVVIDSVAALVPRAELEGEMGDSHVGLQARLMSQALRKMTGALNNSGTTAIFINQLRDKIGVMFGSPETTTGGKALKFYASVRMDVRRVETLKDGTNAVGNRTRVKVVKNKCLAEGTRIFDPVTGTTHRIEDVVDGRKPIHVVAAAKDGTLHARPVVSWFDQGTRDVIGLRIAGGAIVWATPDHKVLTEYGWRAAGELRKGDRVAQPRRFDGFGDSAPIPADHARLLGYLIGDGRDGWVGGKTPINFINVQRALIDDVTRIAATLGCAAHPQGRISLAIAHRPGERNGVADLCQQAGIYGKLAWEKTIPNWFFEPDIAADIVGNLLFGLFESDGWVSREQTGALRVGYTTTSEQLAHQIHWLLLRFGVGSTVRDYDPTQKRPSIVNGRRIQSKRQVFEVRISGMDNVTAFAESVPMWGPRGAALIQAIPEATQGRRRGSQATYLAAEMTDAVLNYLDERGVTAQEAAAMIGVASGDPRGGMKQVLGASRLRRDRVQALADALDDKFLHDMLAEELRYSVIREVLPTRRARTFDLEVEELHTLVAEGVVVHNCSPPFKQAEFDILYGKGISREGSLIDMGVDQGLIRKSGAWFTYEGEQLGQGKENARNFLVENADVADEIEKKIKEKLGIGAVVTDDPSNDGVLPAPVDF
# Arbovirus anti: blocks arbovirus infection; arbovirus infection cell-based antiviral screen; inhibition, % at 10 µM; 200,000 compounds, 0.37% hits; AID 1251;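 active means inhibition from about 30%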;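 further: bluetongue infection of BSR cells; cell survival read as ATP light after 72 h; 0% = infected wells without compound and 100% = uninfected wells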
# Mtb betalactam: beta-lactam sensitization of Mtb H37Rv. M. tuberculosis H37Rv growth with meropenem, percent inhibition; hits of this screen are not shown here. inhibition, % at 25 µM. 330,000 compounds, 0.27% hits;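 active means about 74% or more and at least 40 points above the plate without the antibiotic, then above 30% in a dose series; inconclusive means first-round hits that could not be retested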;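 further: growth measured after seven days incubation then overnight dye step; 0% = bacteria only wells and 100% = bacteria with antibiotic; twin plates without the antibiotic show which effects depend on it; some results filed as inactive read as strong as hits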
# YopH inh: blocks Yersinia enterocolitica YopH tyrosine phosphatase | AID 898 | inhibition, %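 (about 10 µM by stock and volumes)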 | 140,000 compounds, 0.16% hits | fluorescence Ex485/Em525;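 active means inhibition of 50% or more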;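 further: controls were vehicle for no effect and minimum signal wells for full effect; inactives centre near -20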
# Arbovirus anti repeat: recorded beside Arbovirus anti, whose call it bears; inhibition, %; measured here: 10K subset replicate screen; many hits read low in the repeat;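 first of two repeat runs on a subset; 0% = infected and 100% = uninfected wells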
# Active calls of the source: *; u = inconclusive; x = not tested or not shown. These rows are one share of the data; count on the stated rates, not on these rows.
SMILES,Mtb H37Rv,RecA splice inh,Arbovirus anti,Mtb betalactam,YopH inh,others
CN(C)S(=O)(=O)c1cccc(NC(=O)c2cccc(NS(=O)(=O)c3ccccc3)c2)c1,x,6.5,x,2,x,
CCC(=O)NC(C)C(c1cccs1)N1CCOCC1 (configuration not stated),-9%,-0.5,x,-13,-26,
COCCCn1nnnc1SCC(=O)N1CCCC1,-7%,0.7,8,-1,20,
COCCCN1C(=O)N(c2ccccc2)C(=O)C1CC(=O)Nc1ccc(F)cc1 (configuration not stated),x,0.5,x,4,x,
COc1cc(OC)cc(C(=O)OCC(=O)Nc2ccc3[nH]c(=O)[nH]c3c2)c1,x,1.1,x,-5,x,
S=C(Nc1cccnc1)NC1CC2CCC1C2 (configuration not stated),x,0.1,x,-1,x,
O=C(C1=C[C@H](c2csc3ccccc23)C[C@H](OCCCCO)O1)N1CCN(Cc2ccc3c(c2)OCO3)CC1,0%,-5.6,-19,68,x,
CCOC(=O)c1c(C)n(C)c2ccc(OCC(O)CNCCc3ccccc3)cc12 (configuration not stated),x,1.6,x,7,x,
O=[N+]([O-])c1ccccc1CNCCc1ccc(F)cc1,0%,-2.5,3,2,-6,
O=C(Nc1ccccc1Cc1ccccc1)C1CC(=O)N(c2ccc3c(c2)OCCO3)C1 (configuration not stated),-12%,1.3,20,2,-11,
NC(=S)N/N=C1\CC(n2nnn(-c3cccc(Cl)c3)c2=S)C2COC1O2 (configuration not stated),-8%,2.9,12,-11,x,
Nc1c(C(=O)OCC(=O)Nc2ccc(Cl)cc2[N+](=O)[O-])[nH]c(=O)[nH]c1=O,-3%,-1.6,x,-4,x,
Cc1ccc(/C([O-])=C(/C(=S)NCc2ccccc2)[n+]2ccccc2)cc1[N+](=O)[O-],7%,0.9,1,0,x,
COc1ccccc1CCn1c(N)cc(=O)[nH]c1=O,x,0.1,x,1,x,
Cc1ccc(C)n1NC(=O)c1cccc(Cl)c1,-11%,0.7,0,49,-29,
COC(=O)c1c(NC(=O)/C=C/c2ccco2)sc2c1CCC2,-6%,1.4,-9,4,-5,
COC(=O)c1ccc(C)c(NC(=O)CCSc2ccc(C)cc2)c1,6%,-9.1,4,6,-32,
COC(=O)c1[nH]c2ccc(F)cc2c1NS(=O)(=O)c1ccc(OC)cc1OC,-3%,-1.5,-4,-9,-42,
CCCC1(c2ccccc2)NC(=O)N(CC(=O)Nc2cc(S(=O)(=O)N3CCOCC3)ccc2Cl)C1=O (configuration not stated),-3%,-2.7,2,4,x,
N#Cc1nc(COc2cccc(Cl)c2)oc1N1CCN(c2ccccc2)CC1,1%,7.5,6,1,-41,
COc1ccc(Oc2nc(OC)cc(OC)n2)cc1,17%,0.6,0,7,x,
Cc1ccc2c(c1)COc1c3ccc(C(=O)NC(C)C)cc3nn1-2,-5%,3.6,x,59,x,
Cc1ccccc1C(=O)NC1CCN(C(=O)N2CCOCC2)CC1,-19%,1.7,-3,-5,-24,
O=C(CN(c1cccc([N+](=O)[O-])c1)S(=O)(=O)c1ccccc1)NCc1ccccc1,2%,2.0,-2,6,-20,
O=C1OC(c2ccc(Cl)cc2)=N/C1=C\C=C\c1ccco1,4%,4.6,6,69,x,
CC(=O)Nc1cc(C(=O)N2CCCC2)ccc1Sc1ccc(C)cc1,1%,-0.3,10,1,-18,
O=C1N(Cc2cccc(Cl)c2)C[C@@H]2C[C@@H](c3ccco3)N3CCC[C@@]123,2%,-3.2,6,-5,x,
CCCCn1c(SCC(=O)NC(C)(C)C)nnc1-c1ccco1,-10%,0.3,2,0,-28,
Cc1cccc(S(=O)(=O)Nc2ccc3c(c2)OCCO3)c1,8%,3.1,8,-6,x,
CCOc1ccc(NS(=O)(=O)c2ccc3c(c2)CCN3C(=O)CCC(=O)O)cc1,-3%,-0.7,-3,-8,-34,
Cc1ccc(C(=O)N(C)c2nnc(-c3ccncc3)s2)cc1,2%,0.7,-1,9,x,
O=C(NC1CCCCC1)N1CCN(S(=O)(=O)c2ccc(F)cc2)CC1,-3%,1.9,5,-9,x,
Cc1cc(Nc2ccc(Br)cc2)nc(-c2ccccc2O)n1,x,0.5,x,5,x,
CC1(C)Cc2[nH]c3ccccc3c2C(C)(C)N1,x,-1.2,x,u,x,
COC(=O)/C=C1\N/C(=N\c2nc(C)cc(C)n2)N(c2ccc(C)cc2)C1=O,-16%,5.5,4,34,5,
COc1ccccc1CNC(=O)CCNC(=O)C1CCN(S(=O)(=O)c2ccccc2)CC1,x,-1.3,x,0,x,
CCN(CC)c1ccc(C(=O)OCC(=O)NCC2CCCO2)cc1 (configuration not stated),-2%,1.1,1,-1,-17,
O=C(c1ccco1)N1CCN(c2cc(C(F)(F)F)nc3ncnn23)CC1,-5%,0.3,9,-2,-38,
COc1ccc(-c2cc(=O)oc3cc(OC(C)C(=O)O)ccc23)cc1 (configuration not stated),-6%,-1.7,-3,4,-36,
O=C(O)C(O)Cc1c[nH]c2ccccc12 (configuration not stated),-5%,x,7,-5,-1,
CCCc1nnc(NC(=O)CCCC(=O)O)s1,-1%,-1.4,-4,-8,16,
Cc1ccnc(SCCn2c(N3CCN(Cc4ccccc4)CC3)nc3c2c(=O)[nH]c(=O)n3C)n1,4%,-0.2,2,-2,-20,Arbovirus anti repeat=2
Cc1ccc(N(CC(=O)NCc2ccco2)C(=O)CNS(=O)(=O)c2ccccc2)c(C)c1,x,-2.4,x,1,x,
CCCc1nc2c(s1)CCc1onc(-c3cccc([N+](=O)[O-])c3)c1-2,x,1.6,x,6,x,
CCOc1ccc(C(=O)NCc2ccco2)cc1Cl,x,-0.6,x,-5,x,

# Reprinted from the part before: 5 entries; new compounds follow.
SMILES,Mtb H37Rv,RecA splice inh,Arbovirus anti,Mtb betalactam,YopH inh,others
CCCc1nnc(NC(=O)CCCC(=O)O)s1,-1%,-1.4,-4,-8,16,
Cc1ccnc(SCCn2c(N3CCN(Cc4ccccc4)CC3)nc3c2c(=O)[nH]c(=O)n3C)n1,4%,-0.2,2,-2,-20,Arbovirus anti repeat=2
Cc1ccc(N(CC(=O)NCc2ccco2)C(=O)CNS(=O)(=O)c2ccccc2)c(C)c1,x,-2.4,x,1,x,
CCCc1nc2c(s1)CCc1onc(-c3cccc([N+](=O)[O-])c3)c1-2,x,1.6,x,6,x,
CCOc1ccc(C(=O)NCc2ccco2)cc1Cl,x,-0.6,x,-5,x,
COc1cccc(SCc2noc(C(=O)NCC3CC3)c2C(=O)NCC2CC2)c1,0%,4.0,x,-8,x,
Cc1ccc(NC(=O)Nc2cccnc2)cc1Cl,x,2.3,x,-2,x,
COc1ccc(NC(=O)c2ccc(S(=O)(=O)C(F)F)cc2)c(OC)c1,2%,3.9,8,1,x,
CCN(c1ccccc1)S(=O)(=O)c1ccc(NC(=S)NC(=O)c2cccs2)cc1,8%,1.7,3,-8,-25,
Cc1cccc(N(CC(N)=O)S(C)(=O)=O)c1C,9%,0.2,7,0,-19,
C=CCNC(=O)c1cc(-c2ccccc2O)on1,1%,2.9,19,1,-20,
CN(C)/C=N/NC(=O)c1ccccc1Cl,-3%,0.1,x,0,x,
c1cc(CNc2ccc3c(c2)OCCO3)ccn1,0%,-4.7,-2,-6,13,
CC(=O)C(Cc1ccccc1)(Cc1ccccc1)C(C)=O,x,-1.5,x,-1,x,
COCCCNC1CS(=O)(=O)CC1O (configuration not stated),-5%,0.6,x,-13,x,
CCOc1nc(NCCc2ccc(OC)c(OC)c2)nc(N2CCN(c3ccc(OC)cc3)CC2)n1,-3%,1.7,-12,-4,0,
Cc1ccc(-c2c3c(=O)n(C)c(=O)n(C)c3cn2Cc2ccccn2)cc1,0%,-0.2,4,-14,-49,
Cc1ccc(OCC(=O)Nc2ccc(N3CCN(C(=O)c4ccco4)CC3)cc2)c(C)c1,x,0.8,x,94,x,
CC1CCc2c(sc(NC(=O)CN3CCN(C(=O)c4ccco4)CC3)c2C#N)C1 (configuration not stated),-3%,-1.3,-1,88,-13,
Cc1ccc(C)c(S(=O)(=O)NC(C)C(=O)Nc2ccc(-c3nc4ccccc4s3)cc2)c1 (configuration not stated),5%,0.7,-8,10,-32,
CS(=O)(=O)N1CCN(c2ccccc2NC(=O)c2ccc3ccccc3c2)CC1,-1%,0.8,1,65,39,
Cc1nc(NC(=O)c2ccncc2)sc1C(=O)N(C)C,x,-1.7,x,-6,x,
O=C(NCc1ccccn1)C1CCN(Cc2cnn(-c3ccccc3)c2-n2cccc2)CC1,-6%,-1.5,-1,8,0,
CC1C[N+](=C2C=C(N3CCOCC3)CC(C)(C)C2)CC(C)O1 (configuration not stated),-3%,1.2,x,-5,x,
Cc1ccc(NC(=O)C2CCN(C(=O)c3ccccc3C)CC2)cc1,1%,0.9,4,-1,-1,
C=CCOn1c(=O)c(-c2ccccc2)[n+]([O-])c2ccccc21,5%,0.3,12,-3,x,
COc1ccc(CNS(=O)(=O)c2ccc(-n3cnnn3)c(C)c2)cc1,x,8.1,x,5,x,
Cc1ccc(NC(=S)NC(=O)C2CCCC2)cc1C,x,6.2,x,31,x,
CC(C)(C)N=C1NN=C(c2cc3ccccc3o2)CS1,7%,0.7,0,4,-4,
CCc1n[nH]c(=O)n1Cn1c(CC)n[nH]c1=O,-5%,1.9,12,-5,-4,
Cc1cc(C)c(NC(=O)c2c[nH]c(=S)n2-c2ccc(F)cc2)c(C)c1,-1%,-2.3,-2,-5,x,
CCn1cc(C(=O)N2CCN(c3ccccc3F)CC2)c(=O)c2ccc(C)nc21,x,-0.6,5,3,x,
Cc1ccc(-n2c(Cc3ccccc3)n[nH]c2=S)cc1,-6%,-4.9,-1,-7,-19,
Cc1ccc(C2OC(=O)C=C2c2ccccc2)cc1 (configuration not stated),x,1.4,x,-1,x,
CCOc1ccc(CCNC(=O)c2cccc(S(=O)(=O)N3CC(C)OC(C)C3)c2)cc1OCC (configuration not stated),x,1.7,x,-1,x,
Cc1ccc(-c2nn3c(C)nnc3s2)cc1NC(=O)c1ccco1,x,-0.7,-1,5,x,Arbovirus anti repeat=-2
O=C(CSc1ncccn1)NNC(=O)c1ccccc1,x,2.1,x,2,x,
O=C(Oc1ccc(C(=S)N2CCOCC2)cc1)c1ccccc1F,x,6.8,x,-3,x,
CCOC(=O)c1ccc(Nc2c(OCC)c(=O)c2=O)cc1,4%,0.1,x,10,x,
COc1nc(OCC#N)nc(N2CCCCC2)n1,-5%,-0.7,-4,-8,x,
Cc1ccc(OCC(=O)NNC(=S)NC(=O)c2ccc(Br)o2)c(C)c1,x,-1.2,x,96,x,
Cc1oc2c(O)c(O)ccc2c(=O)c1-c1ccccc1,2%,-4.1,-3,-1,x,
Cc1cc(C)nc(NC(=O)c2ccc(Cl)c([N+](=O)[O-])c2)n1,-7%,-2.9,x,3,x,
COc1ccc2c(c1OC)c(=O)n1c3ccc(OC(C)C(=O)NCCCN4CCOCC4)cc3c3ccnc2c31 (configuration not stated),x,-238,x,-6,x,
O=C(Nc1cccc(S(=O)(=O)c2cccc(NC(=O)C3CC3)c2)c1)C1CC1,10%,-16,3,-1,-5,
Cc1ccc(-n2c(=O)cc(N3CCN(Cc4ccccc4)CC3)[nH]c2=O)cc1,1%,-1.5,-2,-1,-21,
CCOC(=O)c1c(C)[nH]c(C(=O)COC(=O)C2=NNC(=O)CC2)c1C,-7%,-0.9,1,1,x,
O=C(N1CCCC1)C(F)(F)Oc1ccc(F)cc1,3%,0.5,1,-9,x,
CCOc1ccc(C(Nc2ccc(C)cc2)P2(=O)OCCCO2)cc1 (configuration not stated),2%,1.7,11,-5,-22,
O=C(NC1C(=O)NNC1c1ccccc1)c1ccc(F)cc1 (configuration not stated),-11%,x,1,2,-1,
CCOC(=O)c1cnc2c(OC)cccc2c1Oc1ccccc1,x,19,x,3,x,
O=C(CN1CCOCC1)c1ccc2cc[nH]c2c1,-8%,9.8,8,2,-16,Arbovirus anti repeat=0
CC12CC[C@H]3[C@@H](CCC4(O)C[C@H](O)CCC34/C=N/NC(=O)c3ccccc3[N+](=O)[O-])C1(O)CCC2C1=CC(=O)OC1 (some centres not stated),x,0.6,x,-6,x,
Cc1nnc(SCC(=O)Nc2sc3c(c2C#N)CCCC3)[nH]c1=O,-3%,0.3,7,25,-11,Arbovirus anti repeat=5
CN(C)Cc1ccccc1Sc1ccc(O)cc1O,-35%,-5.5,8,2,-22,
CCCc1cc2c(=O)c(-c3nc4ccccc4s3)c(COCC(=O)O)oc2cc1O,-8%,x,10,x,x,
O=C(NNc1nc(=O)c2cccnc2s1)c1ccccc1O,-2%,-0.2,10,-2,x,
CC(C)c1ccc(NC(=S)N2CCN(S(=O)(=O)c3ccccc3)CC2)cc1,x,-0.1,x,-5,x,
